# Mtb MbtI inh = MbtI salicylate synthase inhibitors, primary screen, biochemical, fluorescence intensity | 100,000 tested, 0.89% active | inhibition, %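 (about 17 µg/mL by stock and volumes)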 | AID 493033, 2011 | purified MbtI enzyme, fluorescence intensity read-out;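 active means above 50% in both replicates, above 80% if mildly self-fluorescent; inactive means the rest, strongly fluorescent compounds included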;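 further: 0% = mean of negative and 100% = mean of positive controls; one replicate is shown; some compounds called inactive have numbers as strong as hits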
# Target sequence (P9WFX0 whole entry, looked up): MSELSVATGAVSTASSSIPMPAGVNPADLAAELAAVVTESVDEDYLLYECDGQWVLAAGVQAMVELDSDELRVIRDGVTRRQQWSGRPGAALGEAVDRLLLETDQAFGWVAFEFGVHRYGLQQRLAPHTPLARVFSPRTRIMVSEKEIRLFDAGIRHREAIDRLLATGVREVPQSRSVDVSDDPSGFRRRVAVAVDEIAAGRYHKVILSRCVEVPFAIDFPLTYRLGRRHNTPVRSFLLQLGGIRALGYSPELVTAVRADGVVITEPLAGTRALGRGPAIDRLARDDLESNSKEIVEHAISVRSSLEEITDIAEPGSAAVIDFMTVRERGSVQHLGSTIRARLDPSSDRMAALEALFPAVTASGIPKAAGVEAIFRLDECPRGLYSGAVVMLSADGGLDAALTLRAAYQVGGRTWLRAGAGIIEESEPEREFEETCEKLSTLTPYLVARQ
# Polio RdRp inh = poliovirus RdRp elongation inhibitors, primary screen, biochemical, fluorescence polarization, total intensity; Genome polyprotein (Poliovirus type 1 (strain Mahoney)), P03300; poliovirus polymerase elongation; stronger effect = lower value; % elongation, % (compound at 16.7 µg/mL); 150,000 tested, 0.66% active; in the data active means % elongation below about 90%; further: some results filed as inactive read as strong as hits
# Mtb MenB inh = M. tuberculosis MenB inhibitors, primary screen, biochemical, absorbance; 1,4-dihydroxy-2-naphthoyl-CoA synthase (Mycobacterium tuberculosis (strain ATCC 25618 / …; MenB enzyme assay, absorbance read-out; some hits fall short of the stated cut; inhibition, %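 (about 12 µg/mL by stock and volumes)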; 100,000 tested, 0.43% active; AID 540299, 2011;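 active means mean of two replicates above 30%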;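 further: 0% = no compound and 100% = wells with inactive enzyme; the first replicate is given; strong numbers were not always called active; inactives centre near -10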
# Target sequence (P9WNP5 whole entry, looked up): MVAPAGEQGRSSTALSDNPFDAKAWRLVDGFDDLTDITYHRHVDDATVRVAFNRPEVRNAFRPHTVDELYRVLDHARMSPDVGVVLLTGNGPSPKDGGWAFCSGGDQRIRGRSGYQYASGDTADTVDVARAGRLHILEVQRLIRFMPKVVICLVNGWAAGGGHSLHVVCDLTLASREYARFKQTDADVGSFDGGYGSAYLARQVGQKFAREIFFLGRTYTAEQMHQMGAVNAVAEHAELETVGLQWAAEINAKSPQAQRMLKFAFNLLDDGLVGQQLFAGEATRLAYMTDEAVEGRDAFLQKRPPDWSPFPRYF
# Polio RdRp inh intensity = second read-out of Polio RdRp inh, no call of its own (marks repeat the call); % elongation; measured here: total intensity read-out; formula for this scale not given here;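 total fluorescence in place of polarization; lower means less elongation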
# An asterisk follows results filed as active; i = inactive; . = no result given; & = joins results of further samples. Random draw from the library; any-hit rate near 1.8%.
# The first 3 compounds, to show the layout:
nr | SMILES | Mtb MbtI inh | Polio RdRp inh intensity | Mtb MenB inh | Polio RdRp inh
1 | O=C(COc1ccccc1C(=O)O)Nc1ccc(Br)cc1 | -4 | 104 | . | 101
2 | CC(N)C(=O)OC(C)(C)Cc1ccc(Cl)cc1 (configuration not stated) | -6 | 104 | -3 | 100
3 | O=C(c1cc2ccccc2oc1=O)N1CCOCC1 | -3 | 109 | . | 104

# The whole of this part (from the top)
nr | SMILES | Mtb MbtI inh | Polio RdRp inh intensity | Mtb MenB inh | Polio RdRp inh
1 | O=C(COc1ccccc1C(=O)O)Nc1ccc(Br)cc1 | -4 | 104 | . | 101
2 | CC(N)C(=O)OC(C)(C)Cc1ccc(Cl)cc1 (configuration not stated) | -6 | 104 | -3 | 100
3 | O=C(c1cc2ccccc2oc1=O)N1CCOCC1 | -3 | 109 | . | 104
4 | CC(C)(C)NC(=O)c1ccccc1SCc1ccc(F)cc1 | . | 101 | -22 | 106
5 | Cc1cc(C)c(S(=O)(=O)N2CCN(Cc3ccc4c(c3)OCO4)CC2)c(C)c1 | -61 | 101 | 5 | 101
6 | CCN(C(=O)COc1cc(=O)n(CC)c2ccccc12)c1cccc(Cl)c1 | 4 | 103 | -4 | 102
7 | Cc1c(C)n(C(=O)CSc2ncn[nH]2)c2ccccc12 | -47 | 106 | . | 101
8 | COC(=O)c1cccc(NC(=O)COC(=O)CSc2nc(C)cc(C)n2)c1 | . | 111 | -1 | 104
9 | O=S1(=O)CCC(NNC(=S)Nc2ccccc2)C1 (configuration not stated) | 4 | 102 | -3 | 102
10 | COc1cccc(-c2nc3ccccc3s2)c1 | -12 | 104 | 1 | 100
11 | CC12CC3CC(C)(C1)CC(CO)(C3)C2 | 3 | 105 | -28 | 105
12 | Oc1ccccc1C=Nc1ccc(OC(F)(F)F)cc1 | -4 | 109 | -17 | 105
13 | CCn1ccc(C(=O)Nc2ccccc2Cl)n1 | -3 | 106 | -6 | 102
14 | CN1C(=O)C(=Cc2cccn2-c2ccccc2)C(=O)N(C)C1=O | -14 | 102 | -7 | 100
15 | COc1ccc(CNc2cc(C)cc(C)c2)cc1 | . | 91 | -3 | 93
16 | CCCn1c(C(F)(F)F)nc2ccccc21 | -4 | 102 | -9 | 103
17 | COCCNC(=S)N1CCCN(c2nc3cc(C)ccc3cc2C#N)CC1 | 22 | 101 | 21* | 102
18 | CCCCn1c(CCCNC(=O)c2ccco2)nc2ccccc21 | -7 | 104 | 2 | 102
19 | O=C(NCC1CCCO1)c1c[nH]c2ccccc2c1=O (configuration not stated) | 11 | 110 | -40 | 101
20 | CCSc1nc2ccccc2n1CC(=O)Nc1cc(Cl)ccc1OC | -5 | 101 | . | 100
21 | CN(C(=O)COC(=O)c1cccs1)C1CCS(=O)(=O)C1 (configuration not stated) | 3 | 101 | -8 | 102
22 | N#CC(C#N)=Cc1cn(CC(=O)Nc2ccccc2)c2ccccc12 | 9 | 110 | -175 | 100
23 | CCOC(=O)c1nc(N)c(=O)n(-c2ccc(Cl)cc2)n1 | 1 | 106 | -35 | 102
24 | O=C1N/C(=N\O)S/C1=C/c1cccnc1 | 2 | 100 | -1 | 101
25 | CCN(Cc1ccncc1)S(=O)(=O)c1ccc(Cl)cc1 | -2 | 104 | -11 | 98
26 | COc1ccc(CCn2c(=S)[nH]c3c(sc4ccccc43)c2=O)cc1OC | 14 | 106 | -15 | 101
27 | O=C1N(c2ccc3c(c2)OCO3)C(c2ccc(F)cc2)C1(F)F (configuration not stated) | 4 | 109 | -16 | 108
28 | CCOc1ccc(NC2=NCCCS2)cc1 | 0&4 | 104&111 | 3 | 101&103
29 | N#Cc1c(=N)nc2oc3ccc(Cl)cc3c3c(C#N)c(N)[nH]c1c23 | 9 | 103 | -12 | 101
30 | CC1CSC(N(C(=O)CN2CSCC2=O)c2ccc(Cl)cc2)=N1 (configuration not stated) | 1 | 109 | 1 | 107
31 | Nc1n[nH]c(CCc2ccccc2)n1 | -2 | 101 | 27 | 101
32 | CCN(C#N)c1nc(C)cc(OC)n1 | -15 | 101 | -21 | 105
33 | N#C/C=C/N1CCC(Cc2ccccc2)CC1 | 13 | 97 | -21 | 98
34 | Cc1cccc(C(=O)OCc2nc3ccccc3c(=O)[nH]2)c1C | 5 | 98 | . | 100
35 | O=C(CSc1nnc2ccccn12)NCc1cccs1 | 44 | 95 | -5 | 102
36 | CCCCn1nnnc1CSc1nnc(-c2cc(OC)c(OC)c(OC)c2)n1-c1ccccc1F | 6 | 99 | 6 | 109
37 | COc1ccc(C2CC(c3cc4ccccc4oc3=O)=Nc3ccccc3N2)cc1 (configuration not stated) | . | 150 | -22 | 131
38 | CC1CC1C(=O)OCC(=O)Nc1ccccc1Oc1ccccc1 (configuration not stated) | -11 | 100 | . | 102
39 | O=c1c(/C=N/N2CCOCC2)c(-c2ccccc2)[nH]n1-c1nc2ccccc2s1 | 14 | 102 | -7 | 99
40 | C=CCn1c(O)c2ccc(C(=O)N=C3N=c4ccccc4=N3)cc2c1O | 11 | 103 | -20 | 106
41 | CCOC(=O)c1sc(=NC(=O)c2ccc(S(=O)(=O)N3CCCCC3)cc2)n(C)c1C | -11 | 101 | -3 | 100
42 | CC(Sc1nncn1C)C(=O)Nc1ccc(C#N)cc1 (configuration not stated) | -19 | 109 | 5 | 102
43 | CCc1nc(NC2CCCCC2)c(C#N)c2c1CCCC2 | 4 | 105 | 9 | 104
44 | Cc1ccc(S(=O)(=O)N2CCCC2C(=O)NC2CCCCC2)cc1 (configuration not stated) | -1 | 105 | . | 104
45 | CCCC(Nc1ncnc2ccccc12)C(=O)O (configuration not stated) | -3 | 104 | -10 | 102
46 | COc1ccc(C2=C(N3CCC(C(N)=O)(N4CCCCC4)CC3)c3ccccc3C2=O)cc1 | 8 | 101 | -53 | 101
47 | O=S(=O)(Cc1noc(-c2cc(Cl)cc(Cl)c2)n1)c1ccc(Cl)cc1 | 6 | 100 | -11 | 100
48 | O=C(O)Cc1csc(N2CCCC2=O)n1 | -2 | 104 | -3 | 106
49 | CCOc1cc(/C=C2\Sc3ccccc3C2=O)cc(I)c1O | 5 | 129 | -10 | 121
50 | CC(C)(C)n1nnnc1C(c1ccccn1)N1CCN(c2cccc(C(F)(F)F)c2)CC1 (configuration not stated) | -5 | 101 | -63 | 102

# Other compounds:
nr | SMILES | Mtb MbtI inh | Polio RdRp inh intensity | Mtb MenB inh | Polio RdRp inh
51 | COCC(=O)Oc1c(Sc2c(F)c(F)c(F)c(F)c2F)c(C)nn1C(C)(C)C | 13 | 100 | -30 | 100
52 | O=C1/C(=C/c2ccccc2OC(F)F)CS(=O)(=O)c2ccc(F)cc21 | 6 | 102 | -20 | 102
53 | CCOC(=O)[C@@H]1Nc2ccc(C(=O)O)cc2[C@@H]2C=CC[C@H]12 | 16 | 87* | -15 | 68*
54 | CCOc1ccc(S(=O)(=O)NCc2ccccc2)cc1-c1nc2c(C(C)(C)C)nn(C)c2c(=O)[nH]1 | 7 | 102 | -24 | 101
55 | COc1ccc(-c2noc(-c3cc4c(COC(C)=O)cnc(C)c4oc3=O)n2)cc1 | 3 | 103 | 14 | 102
56 | Cc1cc2cc(CNc3ccc(N4CCCC(O)C4)cc3)c(=O)[nH]c2cc1C (configuration not stated) | -1 | 104 | 16 | 102
57 | COC(=O)CC1SC(=O)N(c2ccc(C)cc2)C1=O (configuration not stated) | 0 | 101 | -4 | 101
58 | COC(=O)c1ccc(NC(=O)c2ccn[nH]2)cc1 | 13 | 103 | 1 | 103
59 | CCc1c(C)c(C#N)c2nc3ccccc3n2c1NCc1ccco1 | 4 | 101 | -12 | 101
60 | CN(C)c1cccc(C(=O)N/N=C2\CCSc3ccc(F)cc32)c1 | -6 | 104 | -4 | 102
61 | O=C(O)C12CC3CC(C1)CC(C(=O)O)(C3)C2 | -6 | 100 | 18 | 100
62 | Nc1n[nH]c(C2CCCCC2)n1 | -2 | 100 | -54 | 101
63 | CN1CCN(C(=O)c2ccccc2NC(=O)c2ccc(Cl)cc2)CC1 | -8 | 100 | 3 | 101
64 | O=C(O)C(Cc1ccsc1)c1ccccc1 (configuration not stated) | . | 104 | 1 | 106
65 | CC(=O)Oc1cc2c(C(=O)N3CCCC3)c(C)oc2c2ccccc12 | 7 | 108 | -8 | 105
66 | O=C(CC(=O)c1ccccc1)Nc1cc(C(F)(F)F)ccc1Cl | 17 | 101 | -10 | 100
67 | Cn1c(=O)[nH]c(=O)c2c1nc(NNC=O)n2Cc1ccc(Cl)cc1 | -10 | 101 | -1 | 102
68 | CCOC(=O)c1cc(S(=O)(=O)NCCc2ccccc2)cn1C | -10 | 99 | -24 | 104
69 | Cc1cc(C)n2nc(C(=O)N/N=C/c3ccncc3)nc2n1 | 2 | 97 | -24 | 102
70 | Fc1cccc(-c2nc3cc(N4CCOCC4)c(N4CCOCC4)cc3[nH]2)c1 | -244 | 131 | -19 | 105
71 | O=C1NCCN1CCNC(=S)Nc1cc(C(F)(F)F)cc(C(F)(F)F)c1 | 7 | 106 | -16 | 106
72 | O=C(c1cnn(-c2ccccc2)n1)N(Cc1nc2ccccc2c(=O)[nH]1)CC1CCCO1 (configuration not stated) | 11 | 102 | 8 | 97
73 | CCCC(=O)c1cc2c(cc1N)OCCO2 | 1 | 99 | -60 | 101
74 | COc1ccc(NC(=O)c2cc3sccc3n2Cc2ccc(F)cc2)cc1Cl | 85 | 97 | -16 | 103
75 | COC(=O)/C=c1\sc2n(c1=O)CN(CCCN1CCOCC1)CN=2 | 1 | 104 | 2 | 105
76 | O=c1c2cccnc2n(Cc2ccc(Cl)cc2)c(=O)n1C1CCCCC1 | -10 | 106 | -25 | 104
77 | COc1ccc(C2CC(C3C(=O)c4ccccc4C3=O)=NN2)cc1 (configuration not stated) | 4 | 102 | -167 | 104
78 | Cc1ccccc1CN1C(=O)C2CC=CCC2C1=O (configuration not stated) | -6 | 104 | -4 | 105
79 | CSc1nc(/N=C/N(C)C)n(-c2c(Cl)cc(Cl)cc2Cl)n1 | 5 | 102 | -10 | 100
80 | CCOC(=O)c1sc2nc(-c3ccccc3)cn2c1C | 7 | 108 | -18 | 100

# One compound at a time, from the list above. Order of screens: Mtb MbtI inh | Polio RdRp inh intensity | Mtb MenB inh | Polio RdRp inh
# Shown for CSc1nc(/N=C/N(C)C)n(-c2c(Cl)cc(Cl)cc2Cl)n1 : 5 | 102 | -10 | 100
# Shown for Cc1ccccc1CN1C(=O)C2CC=CCC2C1=O (configuration not stated) : -6 | 104 | -4 | 105

# New compounds follow:
nr | SMILES | Mtb MbtI inh | Polio RdRp inh intensity | Mtb MenB inh | Polio RdRp inh
81 | CCn1nnc2cc(C(=O)Nc3ccccc3C(=O)NC3CCCC3)ccc21 | -4 | 125 | 5 | 107
82 | C/C(Cn1nnc2ccccc21)=N\NC(=O)c1ccc(Br)cc1 | 0 | 102 | -14 | 105
83 | Cc1ccc(C)c(CNc2ccc3[nH]ncc3c2)c1 | i | 109 | -41 | 96
84 | O=C(CC1(O)C(=O)N(CCc2ccccc2)c2ccccc21)c1cccnc1 (configuration not stated) | -4 | 107 | . | 102
85 | COc1ccc(-c2oc3ncn(CC(C)C)c(=N)c3c2-c2ccc(OC)cc2)cc1 | -10 | 105 | -17 | 104

# Some of the entries above in another layout:
70. Fc1cccc(-c2nc3cc(N4CCOCC4)c(N4CCOCC4)cc3[nH]2)c1
  Mtb MbtI inh = -244
  Polio RdRp inh intensity = 131
  Mtb MenB inh = -19
  Polio RdRp inh = 105

71. O=C1NCCN1CCNC(=S)Nc1cc(C(F)(F)F)cc(C(F)(F)F)c1
  Mtb MbtI inh = 7
  Polio RdRp inh intensity = 106
  Mtb MenB inh = -16
  Polio RdRp inh = 106

72. O=C(c1cnn(-c2ccccc2)n1)N(Cc1nc2ccccc2c(=O)[nH]1)CC1CCCO1 (configuration not stated)
  Mtb MbtI inh = 11
  Polio RdRp inh intensity = 102
  Mtb MenB inh = 8
  Polio RdRp inh = 97

73. CCCC(=O)c1cc2c(cc1N)OCCO2
  Mtb MbtI inh = 1
  Polio RdRp inh intensity = 99
  Mtb MenB inh = -60
  Polio RdRp inh = 101

# Screens as filed in PubChem.
